# Screening results deposited in PubChem by National Center for Advancing Translational Sciences (NCATS).
# Vaccinia mCherry = vaccinia inhibition (mCherry reporter); 0.63% of 310,000 active; Vaccinia virus mCherry reporter infection, fluorescence; about a quarter of the inactives have no number; Potency, µM (series often up to 36.5 µM), for inactives: at the top dose activity change, negative = inhibition, hits mostly inhibitors; AID 720579; active = well fitted inhibition curve with a large enough effect; inconclusive = small, poorly fitted or top-dose-only effect; inactive = no such curve, though single readings can be large or run the other way; tested in A549 cells; also: nearly all actives have a fitted effect of over 35% in size; inactives centre near -10
# Vaccinia Venus = inhibitors of vaccinia virus (Venus reporter) | Potency, µM (titrated, usually from 36.5 µM), for the others: at the highest dose activity change, negative = inhibition, hits mostly inhibitors | 0.46% of 330,000 active | Vaccinia virus Venus reporter expression, fluorescence | AID 720580; active means well fitted inhibition curve with a large enough effect; inconclusive means small, poorly fitted or top-dose-only effect; inactive means no such curve, though single readings can be large or run the other way; tested in A549 cells; also: nearly all actives have a fitted effect of over 30% in size; inactives centre near -10
# * hit, by the source's call; i = inactive; ? = inconclusive; · = not tested or not shown; & = joins results of further samples; [ ] = dose if it differs, or a comment. % is scaled to controls: 0 for no effect and ±100 for the full control effect; potency is read from the fitted curve at half-maximal effect. No enrichment for hits; about 0.87% have a hit in one of these screens.
# Results follow in this order: Vaccinia mCherry | Vaccinia Venus
CC(=O)c1sc(NC(=O)c2cccc3ccccc23)nc1C
    · | 7%
O=C(CSc1nc2ccccc2[nH]1)Nc1ccc(N2CCOCC2)cc1
    -6% | -13%
Cc1ccc(CNC(=O)CN2C(=O)CSc3ccc(S(=O)(=O)N(C)C)cc32)cc1
    -5% | -14%
c1cncc(C2CCCCN2)c1 (stereo not drawn)
    -9% | -5%&-7%&-15%
O=C(CSc1nnc2scc(-c3ccc(Cl)cc3)n12)Nc1cccc(C(F)(F)F)c1
    -13% | -11%
O=C(OCc1cn([C@@H]2CN(C(=O)c3cccs3)[C@@H](c3ccccc3)C[C@H]2O)nn1)c1ccccc1
    -8% | -10%
CCn1c(=O)c2c(n3c(=S)[nH]nc13)-c1ccccc1CC21CCCCC1
    -1% | -2%
O=C(COc1ccc(S(=O)(=O)NC2CCCCC2)cc1)Nc1ccc(C(F)(F)F)cc1
    -21% | -15%
Cc1ccc(SCc2cc(=O)[nH]c(/N=C(\N)Nc3ccccc3Sc3ccccc3)n2)cc1
    -12% | -6%
CCOc1ccc(NS(=O)(=O)c2cc(NC(=O)C3CC3)ccc2C)cc1Br
    1% | -19%

# An excerpt from above in order of heavy-atom count, falling:
# Results follow in this order: Vaccinia mCherry | Vaccinia Venus
O=C(OCc1cn([C@@H]2CN(C(=O)c3cccs3)[C@@H](c3ccccc3)C[C@H]2O)nn1)c1ccccc1
    -8% | -10%
O=C(CSc1nnc2scc(-c3ccc(Cl)cc3)n12)Nc1cccc(C(F)(F)F)c1
    -13% | -11%
CCOc1ccc(NS(=O)(=O)c2cc(NC(=O)C3CC3)ccc2C)cc1Br
    1% | -19%
CCn1c(=O)c2c(n3c(=S)[nH]nc13)-c1ccccc1CC21CCCCC1
    -1% | -2%
CC(=O)c1sc(NC(=O)c2cccc3ccccc23)nc1C
    · | 7%
c1cncc(C2CCCCN2)c1 (stereo not drawn)
    -9% | -5%&-7%&-15%

# (list continues)
# Results follow in this order: Vaccinia mCherry | Vaccinia Venus
O=C1COc2ccc(C(=O)COC(=O)Cc3ccc(Cl)cc3)cc2N1
    -6% | -3%
O=C1CC(Nc2ccc(N3CCOCC3)cc2)C(=O)N1C1CCCCC1 (stereo not drawn)
    · | -9%
COc1ccc(CC(=O)NCc2nnc(SCc3ccc([N+](=O)[O-])cc3)n2C)cc1
    ? | 6%
COc1ccc(C(=O)C2CCCN(Cc3ccc4nonc4c3)C2)cc1F (stereo not drawn)
    -3% | -16%
O=C(NCCc1ccccc1)C1CCC(CNc2c(N3CCCCC3)c(=O)c2=O)CC1 (stereo not drawn)
    3% | -16%
O=C(CCS(=O)(=O)c1ccc(F)cc1)Nc1nccs1
    -12% | -27%
CCn1c(SCC(=O)N2CCC(C(N)=O)(N3CCCCC3)CC2)nnc1-c1ccccc1
    · | -9%
CC(C)C(NS(C)(=O)=O)c1nnc2n1CCN(Cc1ccc(C#CC(C)(C)O)cc1)CC2 (stereo not drawn)
    -13% | -3%
Cc1ccccc1NC(=O)c1ccccc1NS(=O)(=O)c1cccc2cccnc12
    · | -14%
CC1CN(C(=O)CCC(=O)NCc2ccc(Cl)cc2)c2ccccc2S1 (stereo not drawn)
    -3% | -6%
Cc1ccc([C@@H]2CC=C(C(=O)O)CN2S(=O)(=O)c2ccccc2C)cc1
    i | -5%
O=C(C(=O)c1ccc(O)c(O)c1)c1ccc(O)c(O)c1
    i | -9%
Cc1noc(C)c1NC(=O)N(C)C[C@H]1Oc2ccc(NS(=O)(=O)c3c(C)noc3C)cc2C(=O)N([C@H](C)CO)C[C@@H]1C
    i | 1%
CCn1c(SCC(=O)NC2CCCC2)nnc1-c1cccnc1
    -15% | 2%
CCCCCCCCCCCCCCCC(C)C1=NCCN1 (stereo not drawn)
    -11% | -6%
CC(=O)C1CN(S(=O)(=O)c2ccc(C)cc2)C(c2ccccc2)CC1C (stereo not drawn)
    -8% | -3%
Cc1c(NC(=S)SCc2ccccc2)c(=O)n(-c2ccccc2)n1C
    -21% | 4%
Fc1ccccc1NC(=S)NCCc1ccccc1
    -17% | -13%
Cc1ccc2oc(C(=O)N3CCN(c4cccc(C)n4)CC3)c(C)c2c1
    -17% | -12%
Cc1c(C(=O)NCc2ccccn2)oc2ccc(Br)cc12
    97%[activator] | -11%
CCc1ccc(/C=N\n2cnnc2)cc1
    -15% | -12%
CCOCCCNS(=O)(=O)c1ccc(-n2cnnn2)c(OC)c1
    i | -10%
Cc1ccc2[nH]c(-c3cccc(N)c3)cc2c1
    -10% | -23%
CCCCN(C(=O)Cc1ccc(S(=O)(=O)N2CCOCC2)s1)c1c(N)n(CCCC)c(=O)[nH]c1=O
    -11% | -2%
CCCCSc1nc2c(=O)[nH][nH]c(=O)c2n1Cc1ccccc1
    -6% | -9%
COc1cc(OC)c(C2C(C(=O)O)c3ccccc3C(=O)N2C)cc1OC (stereo not drawn)
    -13% | -9%
COc1ccc(N2CCC(CNC(=O)Nc3ccc(C)c(C)c3)C2)cc1 (stereo not drawn)
    -27% | -26%
CCN(CC(=O)Nc1ccc2c(c1)OCCO2)C(=O)c1cccc(OCC(C)C)c1
    -9% | -5%
Cc1cc(C(=O)COc2cccnc2[N+](=O)[O-])c(C)n1-c1ccccc1
    -21% | -5%
O=C(c1ccc(Cl)cc1)N(Cc1ccc(Br)cc1)N1C(=O)CCC1=O
    8% | 2%
CCOc1ccc(-n2c(=O)[nH]cc(C(=O)N3CCCc4ccccc43)c2=O)cc1
    -11% | 3%
C/C(=N\Nc1ccc(C(F)(F)F)cc1[N+](=O)[O-])C(C)C
    -11% | -9%
CCCCC(=O)Nc1ccc(NC(=O)c2cc(OC)c(OC)c(OC)c2)cn1
    -7% | -6%
COc1cc(NC(=O)CCNC(=O)Cn2cnc3sc4c(c3c2=O)CCCC4)cc(OC)c1OC
    i | -9%
COc1ccc(OC)c(Nc2nc(-c3ccccc3O)nc3ccccc23)c1
    -18% | 7%
Cc1ccccc1N(C(=O)CCC(=O)Nc1ccccn1)C(C(=O)NC(C)C)c1ccc(O)cc1 (stereo not drawn)
    i | -11%
Cc1ccc(SCC(=O)N2CCC(C(N)=O)CC2)cc1
    i | -18%
O=C(/C=C/c1ccco1)Nc1ccc(-c2nc3ccccc3[nH]2)cc1
    ? | ?
COc1ccccc1-n1c(=O)[nH]c2c(C(N)=O)nc(C3CCCCC3)nc21
    i | ?
Cc1c(C)n(CC(O)CSc2ccccc2)c2ccccc12 (stereo not drawn)
    32%[activator] | 4%
CN1CCN(c2nc(NCCOC34CC5CC(CC(C5)C3)C4)nc(OCC(F)(F)F)n2)CC1
    -7% | -9%
Cc1cccc(CN2CCOCCS2(=O)=O)c1
    ? | ?
CCc1ccc(N2CC(C(=O)N3CCCC3)CC2=O)cc1 (stereo not drawn)
    i | -14%
NC1=NC(=O)C2(COC(c3cccnc3)OC2)S1 (stereo not drawn)
    -3% | -9%
COc1cccc(N2CCN(C3C(=O)c4ccccc4N3C(C)=O)CC2)c1 (stereo not drawn)
    -5% | -7%
COc1ccc(Cn2c(C3CC3)nc3ccc(NC(=O)C4CC4)cc3c2=O)cc1
    -24% | -19%
NS(=O)(=O)c1cccc(NC(=O)COC(=O)C2(c3cccc(F)c3)CCCC2)c1
    -1% | -28%
COc1ccc(-c2nnc3ccc(SCC(=O)Nc4nc5ccc(C)cc5s4)nn23)cc1OC
    -25% | -10%
CCCC(=O)N=c1sc2cccc(F)c2n1C
    i | -9%
COc1cc(OC)c(C(=O)CCC(=O)O)cc1OC
    -11% | -6%

# Next section.
# Results follow in this order: Vaccinia mCherry | Vaccinia Venus
COc1cc(-c2cc(C(F)(F)F)n3ncc(C(=O)O)c3n2)cc(OC)c1OC
    -5%[1.46 µM] | -4%
Cn1c(SCC(=O)NNC(=O)c2ccccc2O)nnc1-c1ccccc1
    ? | -2%
COc1cccc(CNC(=O)CN(C)S(=O)(=O)c2ccc3[nH]c4c(c3c2)CCCC4)c1
    -23% | -18%
COCCNC(=S)N(CCc1c(C)[nH]c2ccc(Cl)cc12)Cc1cccs1
    ? | ?
COC(=O)CN1C(=O)COc2ccc(S(=O)(=O)NCc3ccc(F)cc3)cc21
    -11% | -17%
CN1CCC=C(C(=O)N2c3ccccc3Sc3ccc(Cl)cc32)C1
    ? | -17%
O=C1CN(C(=O)CSc2nnc3ccccn23)c2ccccc2N1
    -13% | 0%
CCOC(=O)/C(C)=N/NC(=O)c1cccc([N+](=O)[O-])c1
    -3% | -1%
Cc1ccccc1OCC(=O)Nc1ccccc1C(=O)OCc1cc(=O)n2nc(C3CC3)sc2n1
    ? | ?
O=C(NCC(c1cccnc1)N1CCN(Cc2ccccc2)CC1)C(=O)Nc1ccc(F)cc1 (stereo not drawn)
    -5% | -12%
Cc1nnc(SCC(=O)NC2CC2)s1
    -26% | -9%
CCOc1ccc2[nH]c(=O)c(CN(Cc3ccco3)C(=O)c3ccc(Br)cc3)cc2c1
    0% | -9%
Cc1ccc2nc(-c3ccc(SCC(=O)Nc4cc(C)on4)nc3)[nH]c2c1
    -23% | -19%
Cc1nn(Cc2ccccc2)c(Cl)c1/C=C/C(=O)OCC(=O)NC(C)C(C)C (stereo not drawn)
    i | -12%
O=C(NN=C1CCCCC1)c1ccccc1OCc1ccc(F)cc1
    i | 5%
OCC1(Cc2cccc(Cl)c2)CCCN(Cc2ccc3cc(F)ccc3n2)C1 (stereo not drawn)
    -2% | -11%
CCc1nc2ccc(C(=O)Nc3nnc(C)s3)cc2nc1CC
    -1% | -6%
O=C(CSc1nnc(NC(=O)c2cccc(F)c2)s1)NC1CC1
    -1% | -3%
CC(C)C[C@H](N)c1nnc(S(=O)(=O)Cc2cccc(F)c2)o1
    -8% | -1%
CC(OC(=O)C1COc2ccccc2O1)C(=O)N(C)c1ccccc1 (stereo not drawn)
    4% | 0%
Cc1cc(OCC(=O)Nc2cc(C(C)(C)C)on2)ccc1[N+](=O)[O-]
    -4% | -6%
CC(C)=C1C(=O)NN(c2cccc(Cl)c2)C1=O
    -1% | 3%
CCC(C)NC(=O)C1CCN(C(=O)N(C)C)CC1 (stereo not drawn)
    i | -5%
Cc1cc(NC(=O)c2cc3cc([N+](=O)[O-])ccc3s2)no1
    -19% | -6%
COc1ccc(C(=O)CSc2nnc(Cc3ccccc3)o2)cc1
    -19% | -12%
CCCCOCCCNC(=O)N[C@H](C(=O)O)C(C)CC (stereo partly drawn)
    -8% | -16%
CCOc1ccc(-c2nc(N)nc(C)c2-c2ccc(OC)c(OC)c2)c(O)c1
    · | -22%
COc1ccc(OC)c2[nH]c(C(=O)O)cc12
    -8% | -8%
CC1CCN(C(=O)Cn2ncc3c4ccccc4n(Cc4ccc(Cl)cc4)c3c2=O)CC1
    -2% | -8%
CCCCS/C(N)=N/N=C/c1cc(C)ccc1O
    -22%[1.46 µM] | ?
O=C(O)c1ccccc1C(=O)c1cccs1
    · | -17%
O=C(Cc1ccccc1)Nc1cc(Cl)ccc1Sc1ccccc1
    i | -14%
Cc1cc(=O)oc2cc(NC(=O)c3ccccc3C(=O)O)ccc12
    -12% | -8%
Cc1[nH]c(=S)sc1Cc1ccc(F)cc1
    ? | ?
COc1cc2cc(C)c(Br)c(OC)c2cc1OC
    -8% | -21%
CC1=C(SCc2ccccc2)C(=O)c2ccccc2C1=O
    ? | ?
CCN1CCN(c2ccc(S(=O)(=O)N3CCOCC3)cc2NC(=O)c2ccccc2SC)CC1
    ? | -25%
O=C(CCc1ccccc1)Nc1cc2c3c(c1)CC(=O)N3CCC2
    -14% | -6%
Cc1ccccc1C(=O)NC(C)C1CC2CCC1C2 (stereo not drawn)
    0% | 1%
Cc1ccc(NCCC(=O)c2cccs2)cc1C
    i | -14%
CC(C)C[C@@H](CN1CCCC1CN1C(=S)NC[C@@H]1Cc1ccccc1)N1C[C@H](Cc2ccc(O)cc2)N(CC2CCCCC2)C1=S (stereo partly drawn)
    8% | -8%
Nc1nonc1-c1noc(COc2ccccc2Cl)n1
    i | -6%
O=C(C1CCN(S(=O)(=O)c2cccc3nsnc23)CC1)N1CCCCC1
    i | -6%
COc1ccc(NC(=O)C(=S)NC2CCCCC2)cc1
    i | -8%
C(=C\c1ccccc1)/CNn1cnnc1
    -9% | -8%
COc1ccc(S(=O)(=O)N2CCOCC2)cc1NC(=O)c1cccc2c(=O)c(C)c(-c3ccccc3)oc12
    -13% | -8%
COc1ccc(C(CCN2CCCCC2)c2c(OC)cc(OC)c3c(-c4ccccc4)cc(=O)oc23)cc1 (stereo not drawn)
    -27% | 14µM*
Cc1ccc(C)c(N2N=C(C(=O)Nc3nccs3)CCC2=O)c1
    i | -4%
COc1ccc(S(=O)(=O)N2CCC(C(=O)NC3CC3)CC2)cc1OC
    i | -10%
Cc1c(Cl)cccc1-n1ncc(C(=O)NC2CCCC2)c1C1CCN(C(=O)OC(C)(C)C)CC1
    -2% | -8%

# Going on with the list:
# Results follow in this order: Vaccinia mCherry | Vaccinia Venus
Cc1ccc2ncccc2c1
    i | -5%
CC(NC(=O)CCc1ccc(S(=O)(=O)NC2CCCCC2)cc1)c1ccccc1 (stereo not drawn)
    · | -10%
O=C(NC(=S)Nc1cccc(F)c1)c1cccc([N+](=O)[O-])c1
    i | -14%
Cn1c(SCc2ccccc2Cl)nc2ccccc21
    · | ?
O=C(O)c1ccccc1-c1ccccc1C(=O)Nc1ccccc1
    · | -25%
